Screens (PubChem BioAssay)
MgrA DNA FP: S. aureus MgrA-DNA binding modulation; inhibition, %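 (about 10 µg/mL by stock and volumes)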; fluorescence polarization; 0.13% of 84,000 active;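 active means above 50% in either of two replicates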;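 further: 0% = protein plus DNA without compound and 100% = DNA alone without protein; higher means less MgrA bound to DNA so lower polarization; one replicate is shown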
Sa helicase inh: blocks Staphylococcus aureus DNA helicase | inhibition, %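 (tested at about 80 µM)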 | 0.05% of 120,000 active | AID 485395 | purified S. aureus helicase, fluorescence unwinding assay; about half of the hits fall short of the stated cut;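 active means both duplicates at 50% or more, or one of them with a favoured structure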;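 further: 0% = mean of negative control wells and 100% = mean of positive control wells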
Starred values were filed as active, the others as inactive; . = no result given. These rows are one share of the data (hit frequency here may not be typical).

SMILES | MgrA DNA FP | Sa helicase inh
Cn1c(SCc2ccoc2C(=O)O)nnc1-c1ccccc1 | -1.5 | 5
CC1=Nc2nc(N3CC(C)OC(C)C3)c(C#N)c3c4c(nc(c23)N1)N(c1ccccc1)C(=O)C4 (stereo unspecified) | . | 54*
C=CCn1c(-c2cccc(C)c2)nc2ccccc21 | -0.2 | 7
N=C1CC(=O)N=C2SC(C(F)(F)F)=NN12 | 0.9 | .
Cc1ccsc1C(=O)OCC(=O)Nc1sccc1C#N | . | -20
C[C@@H]1CCC[C@H](C)N1 | 1.6 | .
CCOC(=O)c1cnc(Sc2ccc(Cl)cc2)nc1C(F)(F)F | -0.5 | .
COc1cc(/C=N/NC(=S)NCC2CCCO2)ccc1OC(=O)c1ccco1 (stereo unspecified) | . | -9
COc1nc(NC(C)(C)C)nc(Oc2ccc(=O)n(C)n2)n1 | 1.8 | 0
CCOC(=O)/C(C#N)=C\c1ccc(N2CCOCC2)cc1 | . | -10
COC(=O)c1ccccc1NC(=O)Cn1ccnc1 | . | -11
c1ccc2cc(Cn3ccnc3)ccc2c1 | -1.8 | 11
O=C(NCCc1ccccc1)c1nnc(-c2ccc3c(c2)OCO3)o1 | . | 22
COc1cccc(NC(=O)CCCN2C(=O)C3C4C=CC(C4)C3C2=O)c1 (stereo unspecified) | . | 4
NC(=O)N/N=C/c1ccc(OC(=O)c2ccco2)cc1 | 1.4 | 7
Ic1ccc(Nc2nc(Nc3ccccc3)nc(N3CCOCC3)n2)cc1 | 0.8 | 4
CCOC(=O)c1ccc(NC(=O)c2cccc3c2C(=O)N(Cc2cccnc2)C3)cc1 | 1.5 | 10
CSc1cc(-c2ccc(Cl)cc2)[nH]c(=O)c1C#N | -0.3 | .
c1ccc(CC2=NNC(Cc3ccccc3)=NN2)cc1 | . | 18
CC(C)Nc1nc(Cl)nc(NCCO)n1 | 1.3 | -13

3 compounds drawn at random from those above, as already listed:
SMILES | MgrA DNA FP | Sa helicase inh
N=C1CC(=O)N=C2SC(C(F)(F)F)=NN12 | 0.9 | .
c1ccc2cc(Cn3ccnc3)ccc2c1 | -1.8 | 11
CCOC(=O)c1cnc(Sc2ccc(Cl)cc2)nc1C(F)(F)F | -0.5 | .

Already shown: entries from further up.
SMILES | MgrA DNA FP | Sa helicase inh
Cn1c(SCc2ccoc2C(=O)O)nnc1-c1ccccc1 | -1.5 | 5
CC1=Nc2nc(N3CC(C)OC(C)C3)c(C#N)c3c4c(nc(c23)N1)N(c1ccccc1)C(=O)C4 (stereo unspecified) | . | 54*
C=CCn1c(-c2cccc(C)c2)nc2ccccc21 | -0.2 | 7
N=C1CC(=O)N=C2SC(C(F)(F)F)=NN12 | 0.9 | .

The list continues.
SMILES | MgrA DNA FP | Sa helicase inh
O=C1N/C(=C/c2ccsc2)C(=O)N1c1ccccc1 | 2.6 | -6
CCN(Cc1ccc2c(c1)OCCO2)C(=O)c1ccc(=O)n(Cc2ccccc2)n1 | . | -3
O=C(Nc1nc2ccccc2[nH]1)C1CC(=O)N(Cc2ccccc2)C1 (stereo unspecified) | . | -14
CCS(=O)(=O)Nc1cccc(C(=O)CC2(O)C(=O)Nc3ccccc32)c1 (stereo unspecified) | 0.9 | -6
Cc1nc(SC(C(=O)O)c2ccccc2)cc(-c2ccccc2)n1 (stereo unspecified) | . | 18
O=c1[nH]c(Nc2nc3ccccc3o2)nc2c1CCCC2 | 8.6 | 1
CCOC(=O)C1=CN(C2CCCC2)C=C(C(=O)OCC)C1c1ccccc1C | 1.4 | -1
Cc1ccc(N(CC(=O)Nc2ccc(F)cc2)S(=O)(=O)N2CCCC2)cc1 | . | 5
O=S(=O)(c1cccc(C(F)(F)F)c1)N1CCc2ccccc2C1 | -3.3 | .
COC(=O)C(C)Sc1nc2ccsc2c(=O)n1Cc1ccccc1 (stereo unspecified) | . | 10
O=c1[nH]c(-c2cc(Br)cs2)nc2ccccc12 | -1.0 | .
Cn1/c(=N/NC(=O)CCc2ccc(S(=O)(=O)N3CCOCC3)cc2)sc2ccccc21 | . | -11
O=C1C(C=NCc2cccs2)=C(O)c2ccccc21 | . | -25
CCOC(=O)C1CCN(C(=O)c2ccccc2N(C)S(C)(=O)=O)CC1 | 2.3 | 2
Cc1cc(N2CCN(C)CC2)nc(SCC2COc3ccccc3O2)n1 (stereo unspecified) | . | 7
COc1ccc(C2CC(=O)C3=C(C2)NC(C)=C(C(=O)OC(C)C)C3c2cc3c(cc2Cl)OCO3)cc1 (stereo unspecified) | -1.1 | .
Cc1cc(NS(=O)(=O)c2ccc(F)c(Cl)c2)no1 | -2.0 | .
N#CC1(Nc2cccc(C(F)(F)F)c2)CCCCCC1 | 4.0 | .
O=C(Nc1ncccn1)c1cc(-c2ccc(F)cc2)nc2ccccc12 | -0.9 | -5
CCN(CC)c1ncc2c(NCc3ccccc3)nc(SCc3ccccc3)nc2n1 | -1.6 | .
CNC(=O)/C=C1\NC(C)(C)Cc2c1ccc1ccccc21 | -3.8 | 10
CCn1c2ccccc2c2cc(C3C(C(=O)OC)=C(C)NC4=C3C(=O)CC(c3ccco3)C4)ccc21 (stereo unspecified) | 4.7 | -9
O=C(COC(=O)Cn1cnc2ccccc21)Nc1c(F)cccc1F | -1.2 | -17
FC12CC3CC(F)(CC(C1)C3=C(C(F)(F)F)C(F)(F)F)C2 | . | 27
O=C(Nc1ccc2nc(SCC(=O)N3CCOCC3)sc2c1)c1ccc(Cl)cc1Cl | -1.9 | -5
O=c1oc(-c2cccc(Cl)c2)nc2ccccc12 | -0.7 | .
CSc1nc2ccc3nc(N)sc3c2s1 | . | 6
O=C1CCCN1C(=O)CSc1nnnn1-c1ccccc1 | . | -9
CCN(Cc1ccccc1)c1ccc(/C=N/n2cnnc2)cc1 | -0.6 | 13
O=S1(=O)c2cccc3cccc(c23)N1Cc1nc2ccccc2s1 | . | -15
CC(C)OC(=O)CN1CCN(C2c3ccccc3-c3ccccc32)CC1 | . | 12
CC1=NC(C)(C)Cc2ccccc21 | -1.9 | 6
N#CC1CN(CCc2ccccc2)CN(CCc2ccccc2)C1 | 0.9 | .
CC(OC(=O)c1cccnc1SC(C)C(=O)NC1(C#N)CCCCC1)C(=O)NC1(C#N)CCCCC1 (stereo unspecified) | . | -5
CC(C)(C)c1nnc(NC(=O)CS(=O)(=O)Cc2ccccc2)s1 | 1.1 | -3
O=C(Cc1ccccc1)Nc1ccc(NC(=O)c2cccs2)cc1 | 1.3 | 10
CC(C)CN(CC(C)C)S(=O)(=O)N1CCC(C(=O)NCc2cccs2)CC1 | -1.6 | 4
Cc1nnsc1-c1onc(C)c1C(=O)O/N=C/c1ccc(Cl)cc1 | . | 16
COC(=O)c1c(C)cc(O)c(C)c1O | 7.9 | 1
COc1ccc(CN(CCC(c2ccccc2)c2ccco2)C(C)=O)cc1 (stereo unspecified) | 1.0 | -4
Cn1c(SCC(=O)c2ccccc2)nnc1-c1cccs1 | . | -22
CCC(C)C(NCc1cccc(C)c1)C(=O)O (stereo unspecified) | . | 5
O=C(c1cnn(C(=O)CN2c3cccc4cccc(c34)S2(=O)=O)c1)c1ccccc1O | . | -13
Cn1cccc1Cc1nnc(SCC(=O)N2CCCc3ccccc32)n1-c1ccc(F)cc1 | -0.9 | 8
O=C1NC(=O)C(=C2CCCCC2)S1 | . | 11
c1ccc(Nc2nc3ccccc3n3nnnc23)cc1 | . | -44
CCOC(=O)c1c(Sc2ccccc2)cnn1C(=O)Nc1cccc(Cl)c1 | -1.0 | .
CC(C)c1nc2ccccc2n1CCOc1ccccc1 | . | 3
C=CCSc1nnc2c(n1)OC1(CCCC1)Nc1ccccc1-2 | . | 14
CCc1ccccc1NC(=O)CSc1nc2c(c(=O)n(C)c(=O)n2C)n1C | -1.5 | -2
O=C(CSc1n[nH]c(-c2ccccc2)n1)c1ccc(Cl)cc1 | -1.3 | .
CCCCSc1nnc2c(n1)OC(c1ccc(OCC(=O)O)cc1)Nc1ccccc1-2 (stereo unspecified) | -1.2 | .
CCOc1ccccc1C(=O)N(CC#N)CC#N | -1.1 | 9
CC1(C)Oc2[nH]c(=O)[nH]c(=O)c2C2c3ccccc3OCC21 (stereo unspecified) | . | 18
c1cncc(-c2nc(NCCN3CCOCC3)c3ccccc3n2)c1 | -2.5 | -1
Cc1cc(C)c(COc2ccc3c(c2C)OC(C)(C)CC3=O)c(C)c1 | -1.4 | .
CCC(=O)Oc1ccc2[nH]c(C)c(C)c2c1 | . | -45
Cc1cc(C)c(NC(=O)CC#N)c(C)c1 | . | -1
Cc1ccc(C2N[C@@H](C(=O)O)C(C)(C)S2)cc1 (stereo partly specified) | . | 18
Cc1nc(SC(C(=O)c2ccccc2)c2ccccc2)nc2ccccc12 (stereo unspecified) | 4.6 | 8
Next section
SMILES | MgrA DNA FP | Sa helicase inh
CC(C)n1c(NCc2ccc(N(C)C)cc2)nc2ccccc21 | . | 6
FC(F)(F)c1cnc(N2CCc3ccccc3C2)c(Cl)c1 | . | -10
CCn1c(-c2ccccc2)c(C(=O)Cn2cc(C)sc2=N)c2ccccc21 | . | -2
O=C(CNc1c2ccccc2nc2ccccc12)NC(Cc1c[nH]c2ccccc12)C(=O)O (stereo unspecified) | -1.3 | .
COC(=O)Cn1ncc(Cl)c(Cl)c1=O | . | 5
Cc1cccc(C)c1NC(=O)CO/N=C/c1ccccc1O | . | -15
NC(=S)NC1CCCC1 | . | -11
CC(=O)NC(=O)c1cc2cc(Cl)ccc2oc1=Nc1cccc(C(F)(F)F)c1 | 2.3 | .
O=C(Oc1ccc(OC(F)(F)F)cc1)C1=Cc2cc(Cl)ccc2OC1 | -2.0 | .
Cc1cc(C)c2nc(-c3ccco3)cc(C(=O)O)c2c1 | 34 | 5
COc1ccc(C2Nc3ccccc3-c3nnc(SC)nc3O2)cc1Br (stereo unspecified) | 3.0 | .
O=c1[nH]c(CN2CCN(S(=O)(=O)c3ccc4c(c3)OCCO4)CC2)nc2ccsc12 | . | 3
CCOc1ccc(OCCSc2nc3ccccc3n2CCO)cc1 | 3.6 | .
O=S(=O)(/C=C/c1ccccc1)N1CCN(c2ccc(F)cc2)CC1 | . | 5
O=C(O)CC(O)c1nc2ccccc2[nH]1 (stereo unspecified) | . | 9
CCCC(CCC)C(C(=O)O)C(=O)OCC (stereo unspecified) | -0.7 | .
O=C(O)CCCN1C(=O)c2ccccc2Sc2ncccc21 | . | -22
CCCCN(C)C(=O)c1coc(=O)c2ccccc12 | . | 8
CN1CCN(CCNc2nc(-c3ccccc3F)no2)CC1 | . | -13
CCOCCn1ccc2c(OCC(=O)NC3CCCCC3)cccc2c1=O | . | 10
O=S(=O)(c1ccc(Cl)cc1)N(Cc1ccc(Cl)cc1)Cc1cccnc1 | 1.9 | .
CC(C)n1ncc2c(C(=O)Nc3cccc4ncccc34)cc(C3CC3)nc21 | . | -17
COc1ccc(-n2nnnc2-c2cnc(N)nc2C(F)(F)F)cc1 | . | -11
O=C(CSc1nc2ccccc2o1)NCC(F)(F)F | -1.8 | -15
CC1(C)CC(=O)C=C(NCC(=O)O)C1 | . | -18
CC(C)=CCS(=O)(=O)c1ccccc1 | -2.0 | 12
CC1=C(C)[N+](=O)C2(O)CCCCC2(C)N1[O-] (stereo unspecified) | . | -18
OC1=CONN1c1cccc2ncccc12 | -0.9 | -2
COC(=O)C(Cc1cc(Cl)ccc1Cl)SC#N (stereo unspecified) | -1.9 | -11
Cc1noc(C)c1CSCC(=O)N1CCSC1=Nc1cccc(Cl)c1C | . | -4
CC(=O)c1cccn1S(=O)(=O)c1ccccc1 | -1.3 | .
Cc1ccc(SCC(=O)Nc2nc(-c3cccs3)cs2)cc1 | . | 2
CC(C(=O)OCc1ccc(F)cc1)N1C(=O)c2ccccc2C1=O (stereo unspecified) | . | -4
COc1ccccc1C1CCN(Cc2ccc(Cl)cc2Cl)CC1 | -0.3 | .
Cc1ccc(-c2cc(=O)[nH]c3ccccc23)cc1 | -3.0 | 16
NC(=O)CCc1c[nH]c2ccccc12 | 2.2 | -2
CC(=O)N1CCN(C(=O)c2cc(C)oc2C)CC1 | . | 15
CC(OC(=O)c1ccc(NS(=O)(=O)c2cccs2)cc1)c1nc2scc(-c3cccs3)c2c(=O)[nH]1 (stereo unspecified) | . | -9
O=C1CC(c2ccc(C3=NN(c4ccccc4)C(=O)C3)cc2)=NN1c1ccccc1 | 3.1 | .
CC(C)NC(=O)Cn1ncc2c3ccccc3n(Cc3ccccc3)c2c1=O | . | 0

The last six records of the part above come first, to join the parts:
SMILES | MgrA DNA FP | Sa helicase inh
Cc1ccc(-c2cc(=O)[nH]c3ccccc23)cc1 | -3.0 | 16
NC(=O)CCc1c[nH]c2ccccc12 | 2.2 | -2
CC(=O)N1CCN(C(=O)c2cc(C)oc2C)CC1 | . | 15
CC(OC(=O)c1ccc(NS(=O)(=O)c2cccs2)cc1)c1nc2scc(-c3cccs3)c2c(=O)[nH]1 (stereo unspecified) | . | -9
O=C1CC(c2ccc(C3=NN(c4ccccc4)C(=O)C3)cc2)=NN1c1ccccc1 | 3.1 | .
CC(C)NC(=O)Cn1ncc2c3ccccc3n(Cc3ccccc3)c2c1=O | . | 0
Cc1ccc(Sc2ccc(C(=O)O)cc2NC=O)cc1 | 2.2 | 8
O=c1c2cc3c(=O)n(CCO)c(=O)c3cc2c(=O)n1CCO | -2.3 | .
O=C(O)c1cc(O)c(O)c(O)c1 | 1.0 | .
O=c1oc2cc(O)ccc2cc1-c1ccc(F)cc1 | 6.9 | 11
CCCN(CCC)C1Sc2ccc(C(=O)OC)cc2NC1=O (stereo unspecified) | . | -6
COc1ccc(-c2c(C)oc3cc(O)cc(O)c3c2=O)cc1OC | . | 5

Single values from the results shown:
MgrA DNA FP, `O=c1c2cc3c(=O)n(CCO)c(=O)c3cc2c(=O)n1CCO` = -2.3
MgrA DNA FP, `O=c1oc2cc(O)ccc2cc1-c1ccc(F)cc1` = 6.9
Sa helicase inh, `CCCN(CCC)C1Sc2ccc(C(=O)OC)cc2NC1=O` (stereo unspecified) = -6
MgrA DNA FP, `Cc1ccc(Sc2ccc(C(=O)O)cc2NC=O)cc1` = 2.2
MgrA DNA FP, `O=C(O)c1cc(O)c(O)c(O)c1` = 1.0
Sa helicase inh, `COc1ccc(-c2c(C)oc3cc(O)cc(O)c3c2=O)cc1OC` = 5
